Compound activity deposited in PubChem by National Center for Advancing Translational Sciences (NCATS).
D2 PAM – positive allosteric modulators of human D2 dopamine receptor | P14416 | DiscoveRx D2 beta-arrestin cells, luminescence, 90 min; 100% = 57 uM dopamine signal | potentiation, % (test concentration not listed) | actives 0.23% (n = 360,000) | AID 624464; active = potentiation of 50% or more; inconclusive = 30% to 50%; inactive = 30% or less;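 note: compound concentration not given in the record; tested on top of an EC20 dose of dopamine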
Target sequence (P14416 whole entry, looked up): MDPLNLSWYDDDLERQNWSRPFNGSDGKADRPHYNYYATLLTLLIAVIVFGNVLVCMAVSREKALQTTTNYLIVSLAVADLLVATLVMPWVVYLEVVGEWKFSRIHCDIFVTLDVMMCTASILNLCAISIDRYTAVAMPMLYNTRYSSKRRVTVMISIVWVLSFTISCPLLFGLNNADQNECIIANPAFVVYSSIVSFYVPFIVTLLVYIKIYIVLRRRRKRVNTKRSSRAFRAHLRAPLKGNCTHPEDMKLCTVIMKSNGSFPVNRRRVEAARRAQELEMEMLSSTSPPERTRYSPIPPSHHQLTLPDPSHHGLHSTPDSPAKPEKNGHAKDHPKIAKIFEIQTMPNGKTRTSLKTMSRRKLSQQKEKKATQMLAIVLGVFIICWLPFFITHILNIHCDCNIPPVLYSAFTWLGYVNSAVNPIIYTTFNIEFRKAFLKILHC
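PathHunter D2 cells, attached overnight at 37 deg C, received compound in DMSO plus dopamine at EC20 (50 nM final) for 90 min at 37 deg C. Beta-arrestin recruitment was read as luminescence after 1 h with detection reagent at ambient temperature.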
TRPML1 blocker – inhibitors of human TRPML1 channel; TRPML1-inducible cells, Ca2+ dye fluorescence, FDSS; stronger effect = lower value; inhibition of EC80 agonist-evoked calcium signal; Q9GZU1; activity change, negative = inhibition, % (no concentration beside the values); actives 0.02% (n = 390,000); in the data active means activity change below about -50%; inconclusive means about -30% to -50%; inactive means above about -30%;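 note: stimulus is agonist 54-4 at its EC80 concentration; % is set by controls: 0 for no effect and ±100 for the full control effect; compound concentration not given in the record; the text of the record puts the active cut at -80%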
Target sequence (Q9GZU1 whole entry, looked up): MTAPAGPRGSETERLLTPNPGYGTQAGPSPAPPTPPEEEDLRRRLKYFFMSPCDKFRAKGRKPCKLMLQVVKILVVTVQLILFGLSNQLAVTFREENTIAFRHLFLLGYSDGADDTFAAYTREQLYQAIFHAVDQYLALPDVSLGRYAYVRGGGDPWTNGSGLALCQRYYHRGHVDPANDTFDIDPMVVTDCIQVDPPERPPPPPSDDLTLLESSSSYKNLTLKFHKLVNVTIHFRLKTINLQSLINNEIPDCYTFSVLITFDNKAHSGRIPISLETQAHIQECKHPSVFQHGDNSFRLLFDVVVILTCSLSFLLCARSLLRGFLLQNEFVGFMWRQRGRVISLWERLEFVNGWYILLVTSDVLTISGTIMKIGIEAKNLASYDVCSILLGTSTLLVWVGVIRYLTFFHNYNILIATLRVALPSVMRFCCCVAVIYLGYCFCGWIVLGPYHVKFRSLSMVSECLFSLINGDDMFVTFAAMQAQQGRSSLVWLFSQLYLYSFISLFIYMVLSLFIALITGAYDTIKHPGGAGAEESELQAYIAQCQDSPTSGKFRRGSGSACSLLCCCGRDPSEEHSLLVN
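Tet-induced TRPML1-DL cells loaded with Ca8 no-wash calcium dye were read kinetically on FDSS. Compound addition was followed by EC80 agonist 54-4 (4 uM final); inhibition was read over 110 s.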
TRPML1 agonist – human mucolipin-1 channel agonism | Q9GZU1 | TRPML1-expressing cells, Ca2+ dye fluorescence, FDSS; host cell line not named in the record; reference of the full effect not given here | activation, % (test concentration not listed) | actives 0.12% (n = 410,000); in the data active = activation above about 50%; inconclusive = about 30% to 50%; inactive = below about 30%; note: 0% is about no effect; the text of the record puts the active cut at 80%
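Cells: TRPML1-DL, 1X Tet inducer, ~16 h at 37 degrees C/5% CO2. Dye: ABD Ca8 no-wash + quencher, 45-90 min RT. Read: 10 s baseline, compound add, 110 s agonist phase; 54-4 EC80 (4uM final), 110 s antagonist phase.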
PINK1 modulator – changes PINK1 expression; PINK1 immunofluorescence, high-content cytometry, 24 h; Potency, µM (top dose mostly 76.6 µM), inactives show at the top dose activation (PINK1 increase), actives largely listed as activators; actives 0.2% (n = 410,000); AID 624263; active = well fitted activation curve with a large enough effect; inconclusive = small, poorly fitted or top-dose-only effect; inactive = flat fitted curve, though single readings scatter; cell line not stated here;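 note: potency is the fitted concentration of half-maximal effect; % of control where 0% means no effect; nearly all actives have a fitted effect of over 65% in size; a mitochondrial uncoupler was the plate control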
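PINK1 protein level read as immunofluorescence by microplate cytometer in a fixed, stained stable cell line after 24 h exposure to five compound concentrations, with CCCP as control.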
Six1-Eya2 inh – blocks human Six1 binding to Eya2 | Q15475+O00167 | AlphaScreen GST-Six1/His-Eya2 binding, biochemical; stronger effect = lower value; control for the full effect not named in the record | activity change, % (no concentration beside the values) | actives 0.56% (n = 360,000) | AID 651725; in the data active = activity change below about -65%; inconclusive = about -30% to -65%; inactive = above about -30%; note: % is set by controls: 0 for no effect and ±100 for the full control effect; compound concentration not given in the record
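Six1/Eya2 binding was read as AlphaScreen signal after compounds were pinned into GST-Six1 plus His-tagged Eya2 (5X stock 250/500 nM) in pH 8.0 Tris/NaCl/TCEP buffer, beads added, then incubated 1 h, 37 C, dark.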
D2 agonist – agonists of human D2 dopamine receptor (beta-arrestin); P14416; DiscoveRx PathHunter D2 beta-arrestin, luminescence, 90 min; 100% = 57 uM dopamine signal; activation, % (concentration not given with the values); actives 0.084% (n = 360,000); in the data active = activation above about 40%; inconclusive = about 15% to 40%; inactive = below about 15%; note: compound concentration not given in the record; the text of the record calls up to 30% inactive
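Agonist mode: compounds alone added to overnight-plated D2 PathHunter cells for 90 min at 37 C, with 57 uM final dopamine (EC100) defining full response. Beta-arrestin recruitment detected by chemiluminescent reagent, read after 1 h at ambient temperature.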
Active calls of the source: *; u = inconclusive; x = not tested or not shown; & = joins results of further samples; [ ] = another dose, or the depositor's remark. This is a random part of the collection; overall some 1% were active at least once.

canonical_smiles	D2 PAM	TRPML1 blocker	TRPML1 agonist	PINK1 modulator	Six1-Eya2 inh	D2 agonist
COCCCn1c(C)c(C(C)=O)cc(NC(=O)c2ccccc2)c1=O	-2	-13	0.5	2.0%	-2	-0.2
CC1(C(=O)NS(=O)(=O)c2ccc(F)cc2F)CCN1C(=O)CCc1ccc(Cl)cc1Cl (stereo unspecified)	1	3	-0.2	-1.0%	-2	-2.7
CCOc1ccc(-c2n[nH]c(=S)n2/N=C/c2cc3c(cc2[N+](=O)[O-])OCO3)cc1	-6	-4	-0.4	-0.6%	-21	0.0
Nc1ccc(C(=O)N/N=C/c2ccccc2)cc1	-3	7	-0.8	-1.7%	2	-3.6
Cc1c(N(C(=O)c2cnccn2)C2(C(=O)NC3CCCC3)CCCCC2)c(=O)n(-c2ccccc2)n1C	1	5	0.7	0.0%	4	-3.0
COc1cccc(-c2nc3nc(C)cc(C)n3c2NC2CCCC2)c1	x	x	-0.9	0.2%	0	x
COc1ccc(NC(=O)C2Cc3cc(S(=O)(=O)N4CCCCC4)ccc3N2C(C)=O)cc1Cl (stereo unspecified)	-34	10	0.7	0.3%	-5	-0.9
Cc1noc(C)c1COC(=O)C1(c2cccc(F)c2)CCCC1	-1	-12	-0.9	-0.8%	25	-2.7
C/C=C/c1ccc(O)c(OC)c1	3	15	0.2	0.2%	5	1.2
COCCn1c(SCC(=O)Nc2c(C)n(C)n(-c3ccccc3)c2=O)nc2ccccc2c1=O	1	1	0.7	1.1%	11	0.6
C[C@@H]1CN([C@H](C)CO)S(=O)(=O)c2ccc(-c3ccc(C(=O)N(C)C)cc3)cc2O[C@H]1CN(C)C(=O)Cc1ccccn1	0	28	-0.3	-0.3%	3	-1.1
COc1ccc(C(=O)NC(=S)Nc2cc3oc4ccccc4c3cc2OC)cc1	5	-3	-0.7	13%	2	3.4
C[C@H](CO)N1C[C@H](C)[C@@H](CN(C)Cc2ccc(Oc3ccccc3)cc2)Oc2c(NS(=O)(=O)c3cn(C)cn3)cccc2C1=O	-9	9	-0.6	1.9%	-5	1.7
COc1ccc(N2CCN(Cc3cc(=O)c(OCC(=O)NC4CCCC4)co3)CC2)cc1	13	-6	1.0	-5.2%	2	0.8
COc1cc(Cl)ccc1OCc1cc(C(=O)N2CCN(C)CC2)no1	-17	-8	0.1	0.5%	-1	-2.1
Cc1ccc(CN2CCN(C3CCN(S(=O)(=O)c4ccc(C)cc4)CC3)C(=O)C2=O)cc1	x	2	-1.3	0.4%	x	x
Cc1cc(C(=O)NCC(=O)OCC(=O)NCC2CCCO2)ccc1[N+](=O)[O-] (stereo unspecified)	-4	-6	-0.4	0.2%	2	-0.6
CN(C)CCCNc1ccc(-c2cc(Nc3cccc(Cl)c3)ncn2)cn1	-12	3	-0.4	0.0%	-3	-0.4
CCSc1nc2sc3c(c2c(=O)[nH]1)CCCC3	-5	3	-1.7	1.7%	3	-0.9
COc1ccccc1-c1cc(C(=O)Nc2cccnc2Cl)no1	0	33	-0.2	8.5%	0	-1.3
Cn1nc(C(F)(F)F)c2cc(NC(=O)OCc3ccc(F)cc3)sc21	-13	13	1.8	1.0%	1	3.7
COc1ccc(/C=C/C(=O)OCC(=O)c2c[nH]c3ccccc23)cc1	0	8	-0.1	-1.8%	4	0.8
COc1ccc(CC(=O)OC(C)CN2CCCC2)cc1 (stereo unspecified)	-32	-6	0.5	-0.5%	3	-3.0
CCCCn1nnnc1C1(C)CCC(=O)N1CC(F)(F)F (stereo unspecified)	x	x	-0.5	1.0%	-4	x
COc1ccc(-c2cc(C(F)(F)F)n3ncc(C(=O)NCc4ccco4)c3n2)cc1	-17	3	-0.2	2.6%	-18	-4.6
O=C(Cn1c(=O)oc2ccccc21)N1CCN(c2ccc(N3CCOCC3)nn2)CC1	-5	-1	0.1	1.7%	2	-2.7
Cc1ccccc1S(=O)(=O)N1C[C@H]2CON(C)[C@H]2C[C@H]1c1cccc(Oc2ccccc2)c1	x	0	0.7	-0.4%	-14	4.8
CC(C)(C)C(=O)Nc1nnc([C@H]2C[C@H](O)[C@@H](CO)O2)s1	-4	x	-0.9	1.3%	4	-3.1
COc1ccc(OCC(=O)Nc2ccc3c(c2)C(=O)NC3=O)cc1	-11	16	0.9	2.0%	-9	-1.2
Cn1nc(-c2ccc(Cl)cc2)c2cc(C(=O)N3CCOCC3)sc21	-3	16	0.4	1.2%	-22	0.5
O=C(Nc1ccccc1)Nc1ccno1	u	11	-0.5	-0.5%	2	u
Cc1ccc(-n2ccc(-c3nn(-c4ccccc4)ccc3=O)n2)cc1	-3	-14	0.9	-1.6%	0	0.3
Cc1cc(C)cc(N(CC(=O)Nc2ccc(C(F)(F)F)cc2)S(=O)(=O)c2c(C)[nH]c(=O)[nH]c2=O)c1	-10	-14&-7	0.8&-1.0	1.8%&3.3%	-21	4.4
CCOC(=O)C1(C)CCN1C(=O)c1ccccc1C (stereo unspecified)	-3	x	-0.4	0.3%	10	-3.5
C=CCSc1nc(C)cc2c1C(=O)OC2	-4	4	-0.3	1.0%	5	0.1
Cc1cc(OCC(=O)OCC(=O)Nc2cccnc2Cl)ccc1Cl	21	-9	0.1	0.7%	4	-1.2
O=C(CSc1ccc(-c2ccco2)nn1)N1CCCCC1	-4	-9	-0.3	1.2%	8	1.5
O=C(Cn1nnc(-c2ccccc2F)n1)OCC(=O)c1ccccc1	-13	-9	0.1	1.4%	6	-5.4
O=C1CC(NC(=O)C(F)(F)F)=NN1c1ccccc1	-5	24	1.5	-1.4%	3	-2.7
Cc1ccc(S(=O)(=O)N2CCCC2C(=O)Nc2cc(C)on2)cc1 (stereo unspecified)	-2	12	-0.1	x	4	-2.2
CC(C)CCNC(=O)CO/N=C/c1ccccc1OC(F)F	-7	-10	1.9	1.3%	11	2.2
Cc1cccc(NC(=O)c2ccc3oc(=O)c(S(=O)(=O)c4ccc(F)cc4)cc3c2)c1C	x	17	0.6	2.0%	x	x
O=C1NC2c3c(I)sc(I)c3C(=O)C2O1 (stereo unspecified)	-1	14	6.1	-1.7%	10	0.9
COc1cccc(-c2nc(N3CCCC3)c3ccccc3n2)c1O	2	-14	1.4	18%	-8	2.8
O=C(NCc1ccccc1Br)C1CCCN(C(=O)N2CCOc3ccccc32)C1 (stereo unspecified)	x	-7	0.0	-1.6%	x	x
O=C(Nc1ccc2c(c1)OCO2)c1ccc2sc([C@@H]3O[C@H](CO)[C@@H](O)[C@H]3O)nc2c1	-6	x	-0.3	3.3%	1	4.2
Cc1cccc(Nc2c(-c3ccsc3)nc3nc(C)cc(C)n23)c1	x	2	-0.4	1.8%	x	x
CCOc1ccc(-c2cn3c(n2)sc2cc(C(=O)NC4CCCc5ccccc54)ccc23)cc1 (stereo unspecified)	x	-13	-0.6	-0.1%	x	x
O=C(COC(=O)C1CCC1)Nc1cc(S(=O)(=O)N2CCOCC2)ccc1Cl	-9	15	-0.8	-0.2%	6	-2.7
CCNc1ncnc2c1cnn2C1CCCCO1 (stereo unspecified)	6	11	-0.5	1.2%	-1	-1.4

Part of the list above in order of formula weight, falling.
canonical_smiles	D2 PAM	TRPML1 blocker	TRPML1 agonist	PINK1 modulator	Six1-Eya2 inh	D2 agonist
O=C(NCc1ccccc1Br)C1CCCN(C(=O)N2CCOc3ccccc32)C1 (stereo unspecified)	x	-7	0.0	-1.6%	x	x
Cc1cc(OCC(=O)OCC(=O)Nc2cccnc2Cl)ccc1Cl	21	-9	0.1	0.7%	4	-1.2
O=C1CC(NC(=O)C(F)(F)F)=NN1c1ccccc1	-5	24	1.5	-1.4%	3	-2.7

Following part.
canonical_smiles	D2 PAM	TRPML1 blocker	TRPML1 agonist	PINK1 modulator	Six1-Eya2 inh	D2 agonist
Cc1oc2cc3oc(=O)c(CCC(=O)NCc4ccccn4)c(C)c3cc2c1C	-6	x	x	0.7%	1	6.2
N#Cc1ccccc1S(=O)(=O)N1CCN(CC(O)c2ccccc2)CC1 (stereo unspecified)	-7	21	1.0	-0.9%	-13	-0.5
CC(C)OC(=O)c1cccc(C(=O)O)n1	-5	-3	-0.1	1.7%	0	-3.2
O=C(CC1Oc2ccccc2NC1=O)NCc1ccc(Cl)cc1 (stereo unspecified)	-11	9	-0.8	3.8%	-1	-5.4
COc1ccc(OC)c(S(=O)(=O)N2CCC(C(=O)Nc3cccc(C)c3)CC2)c1	7	-1	0.4	-5.3%[38.3 µM]	5	-0.5
COc1cccc(/C=c2\s/c(=C\C(=O)C(C)(C)C)[nH]c2=O)c1	-3	7	0.2	7.1%	-13	6.9
COc1cccc(-c2csc(N3CCN(C(=O)C4CCCCC4)CC3)n2)c1	0	6	0.4	1.6%	-9	-1.7
Cc1cn2c(-c3cccnc3)nnc2s1	6	-12	-0.5	0.2%	3	1.7
COc1ccccc1OC(=O)c1cc(Cl)nc2ccccc12	7	-5	1.4	-6.1%[38.3 µM]	-3	0.2
Cc1cccc2sc(=S)[nH]c12	-19	x	-0.7	3.5%	3	-7.7
CN(Cc1ccccc1)C(=O)CN1C(=O)c2ccccc2C1=O	-3	12	-0.1	1.2%	4	3.8
CCOc1ccc(NC(=O)NNC(=O)c2ccc(Cl)cc2Cl)cc1	-2	15	-0.1	13%	-1	-2.0
Cc1cc(C)n(S(=O)(=O)c2ccc3ccccc3c2)n1	2	-14	1.3	9.3%[38.3 µM]	9	-1.3
O=C(O)CN1C(=O)C(=O)N(Cc2ccc(C(F)(F)F)cc2)C1=O	-7	-15	-0.3	-0.4%	18	-4.6
O=C(CN1CCN(c2ccccn2)CC1)Nc1cccc(S(=O)(=O)N2CCOCC2)c1	14	11	0.4	-2.5%	0	4.1
COc1cc(NC(=O)COc2ccccc2Cl)ccc1NC(=O)C(C)C	-1	0	-0.3	2.4%	-2	3.3
CC(=O)Nc1ccc(S(=O)(=O)Nc2ccccc2C(=O)N2CCCCCC2)cc1	-3	-19	0.6	-0.5%	1	-5.0
CCCN(C(=O)Cn1cc(S(=O)(=O)N2CCN(c3ccccc3F)CC2)c2ccccc2c1=O)c1cccc(C)c1	x	13	0.1	2.7%	x	x
Cc1c(NC(=O)C(C)N(c2ccccc2)S(C)(=O)=O)c(=O)n(-c2ccccc2)n1C (stereo unspecified)	-16	-6	0.8	0.1%	2	3.1
O=[N+]([O-])c1ccc(Cl)c(/C=N/N2CCN(Cc3ccc(Cl)cc3)CC2)c1	6	9	-0.4	x	10	-0.4
CC(=O)NC1=NC(=O)/C(=C/c2cc(C)n(-c3cccc(C(=O)O)c3)c2C)S1	-4	4	1.7	5.5%	u	-0.6
CCCNC(=O)c1ccccc1C(=O)NC1(C(=O)NCCC)CCCC1	0	-8	0.4	-0.1%	0	8.6
